TRPML1 ag: agonists of human TRPML1 channel | activation, % (concentration not given with the values) | Q9GZU1 | AID 624414 | hit rate 0.12% among 410,000 | TRPML1-expressing cells, Ca2+ dye fluorescence, FDSS; host cell line not named in the record; reference of the full effect not given here; in the data active = activation above about 50%; inconclusive = about 30% to 50%; inactive = below about 30%; further: 0% is about no effect; the text of the record puts the active cut at 80%
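Cells: TRPML1-DL, 1X Tet inducer, ~16 h at 37 degrees C/5% CO2. Dye: ABD Ca8 no-wash + quencher, 45-90 min RT. Read: 10 s baseline, compound add, 110 s agonist phase; 54-4 EC80 (4uM final), 110 s antagonist phase.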
D2 ag: activates the human D2 dopamine receptor | P14416 | DiscoveRx PathHunter D2 beta-arrestin, luminescence, 90 min; 100% = 57 uM dopamine signal | activation, % (no concentration beside the values) | hit rate 0.084% among 360,000; in the data active = activation above about 40%; inconclusive = about 15% to 40%; inactive = below about 15%; further: compound concentration not given in the record; the text of the record calls up to 30% inactive
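Agonist mode: compounds alone added to overnight-plated D2 PathHunter cells for 90 min at 37 C, with 57 uM final dopamine (EC100) defining full response. Beta-arrestin recruitment detected by chemiluminescent reagent, read after 1 h at ambient temperature.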
D2 PAM: positive allosteric modulators of human D2 dopamine receptor; hit rate 0.23% among 360,000; AID 624464; DiscoveRx D2 beta-arrestin cells, luminescence, 90 min; 100% = 57 uM dopamine signal; P14416; potentiation, % (no concentration beside the values); active = potentiation of 50% or more; inconclusive = 30% to 50%; inactive = 30% or less;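 further: compound concentration not given in the record; tested on top of an EC20 dose of dopamine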
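D2 cells co-treated with compound plus 50 nM dopamine (EC20) for 90 min at 37 deg C to detect potentiation. Beta-arrestin recruitment was read as enzyme-fragment luminescence after 1 h at ambient temperature. Full response was set by 57 uM dopamine.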
PINK1 expr mod: modulators of PINK1 expression; PINK1 immunofluorescence, high-content cytometry, 24 h; Potency, µM (titrated, usually from 76.6 µM), without a hit: at the top dose activation (PINK1 increase), actives largely listed as activators; hit rate 0.2% among 410,000; active = well fitted activation curve with a large enough effect; inconclusive = small, poorly fitted or top-dose-only effect; inactive = flat fitted curve, though single readings scatter; cell line not stated here;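 further: potency means the concentration at half of the fitted maximal effect; % of control where 0% means no effect; nearly all actives have a fitted effect of over 65% in size; a mitochondrial uncoupler was the plate control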
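PINK1 protein, normally rapidly degraded, was detected by immunofluorescence after 24 hour compound treatment of a stable cell line. Titration data (5 concentrations) came from laser-scanning cytometry, with CCCP-treated wells as controls.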
Six1-Eya2 blk: Six1/Eya2 interaction inhibition. activity change, % (no concentration beside the values). Q15475+O00167. AlphaScreen GST-Six1/His-Eya2 binding, biochemical; active compounds read low; control for the full effect not named in the record. hit rate 0.56% among 360,000. AID 651725; in the data active = activity change below about -65%; inconclusive = about -30% to -65%; inactive = above about -30%; further: on the % scale 0 is the no-effect control and ±100 the full control effect
Target sequence (O00167 whole entry, looked up): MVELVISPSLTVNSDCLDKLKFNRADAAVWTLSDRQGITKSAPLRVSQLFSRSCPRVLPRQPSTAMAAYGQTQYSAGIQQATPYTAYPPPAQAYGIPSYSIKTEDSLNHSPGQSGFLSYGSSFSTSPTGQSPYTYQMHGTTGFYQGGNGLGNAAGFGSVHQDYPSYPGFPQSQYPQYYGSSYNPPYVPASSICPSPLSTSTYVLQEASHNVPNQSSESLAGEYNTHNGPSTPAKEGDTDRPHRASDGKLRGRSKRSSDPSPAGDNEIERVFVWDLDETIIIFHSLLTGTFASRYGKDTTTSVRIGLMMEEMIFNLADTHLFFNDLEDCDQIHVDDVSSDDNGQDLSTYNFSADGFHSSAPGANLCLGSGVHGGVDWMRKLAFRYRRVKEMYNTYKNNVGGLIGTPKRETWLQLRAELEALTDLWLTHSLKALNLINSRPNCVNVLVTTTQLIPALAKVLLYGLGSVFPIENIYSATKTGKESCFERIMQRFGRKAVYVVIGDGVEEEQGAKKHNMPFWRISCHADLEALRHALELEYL
Target sequence (Q15475 whole entry, looked up): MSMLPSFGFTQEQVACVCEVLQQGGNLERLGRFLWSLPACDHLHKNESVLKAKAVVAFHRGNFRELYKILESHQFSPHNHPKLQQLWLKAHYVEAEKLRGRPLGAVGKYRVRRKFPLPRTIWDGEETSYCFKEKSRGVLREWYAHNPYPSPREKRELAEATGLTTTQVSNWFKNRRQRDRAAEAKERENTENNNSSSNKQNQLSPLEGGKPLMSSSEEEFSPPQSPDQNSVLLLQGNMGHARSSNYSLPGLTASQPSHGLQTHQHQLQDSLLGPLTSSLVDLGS
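Compounds are tested against tagged Six1 and Eya2 proteins bridged by glutathione donor and nickel acceptor beads; after a one-hour incubation at 37 °C without light, AlphaScreen emission is recorded.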
TRPML1 blocker: inhibitors of human TRPML1 channel | Q9GZU1 | TRPML1-inducible cells, Ca2+ dye fluorescence, FDSS; active compounds read low; inhibition of EC80 agonist-evoked calcium signal | activity change, negative = inhibition, % (concentration not given with the values) | hit rate 0.02% among 390,000 | AID 624415; in the data active means activity change below about -50%; inconclusive means about -30% to -50%; inactive means above about -30%;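 further: stimulus is agonist 54-4 at its EC80 concentration; on the % scale 0 is the no-effect control and ±100 the full control effect; the text of the record puts the active cut at -80%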
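Calcium fluorescence in TRPML1-DL cells induced overnight with Tet: a 110 s read after compound pin addition, then a 110 s antagonist read after challenge with 54-4 at 4 uM final (EC80).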
The depositor's hits bear a star; ? = inconclusive; nt = not tested or not shown; [ ] = dose if it differs, or a comment.

SMILES | TRPML1 ag | D2 ag | D2 PAM | PINK1 expr mod | Six1-Eya2 blk | TRPML1 blocker
Cc1cc(=O)c2c(o1)CC(C)(C)CC2=O | 0.6 | 0.4 | -13 | nt | 6 | 8
CCn1nc(C)c(CCN(C)C(=O)Nc2ccc(C)c(Cl)c2)c1C | -0.8 | nt | nt | 0.5% | nt | -10
CCN1CCN(C(=O)c2ccc3c(c2)N(Cc2cccc(Cl)c2)C(=O)c2ccccc2S3=O)CC1 (configuration not stated) | 0.4 | nt | nt | 0.3% | nt | 9
O=C1CCCN1c1ccc(S(=O)(=O)N2CCCCC2)cc1[N+](=O)[O-] | 1.0 | 0.6 | 11 | 0.3% | 0 | -6
C/C(Cc1ccccc1)=N\NC(=O)CNC(=O)c1ccc(Br)cc1 | 5.1 | 0.1 | -4 | -0.5% | 0 | -2
CC(=O)Nc1ccc(S(=O)(=O)NCC2CCC(C(=O)NCCCN(C)Cc3ccccc3)CC2)cc1 (configuration not stated) | -0.8 | -3.1 | -15 | 0.0% | 4 | -10
CCn1ncc(C2=NOC(C(=O)Nc3cccc(O)c3)C2)c1C (configuration not stated) | 0.6 | 2.7 | -4 | -0.7% | 0 | -9
CCC(CC)C(=O)Nc1ccc(OCc2cc(=O)n3ccc(C)cc3n2)cc1 | 1.5 | nt | nt | 1.1% | nt | -4
Cc1cc(C)c(OCC(=O)N2CCN(c3ncc(C(F)(F)F)cc3Cl)CC2)c(C)c1 | 0.3 | -1.5 | 7 | 12% | 2 | -17
CCOC(=O)C(C)n1cnc2c(nnn2-c2cccc(OC)c2)c1=O (configuration not stated) | -0.5 | -0.1 | -6 | -0.5% | -5 | 5
CC(C)n1cnc2c(Nc3cccc(Cl)c3)nc(N(CCO)CCCO)nc21 | -0.4 | 3.8 | -1 | -0.5% | -13 | -14
O=c1cc2c(nn1Cc1cccc([N+](=O)[O-])c1)-c1ccccc1CC2 | 1.4 | -2.1 | -1 | -0.4% | -7 | -20
O=C(CCC1CCCC1)N1CCN(S(=O)(=O)c2ccc(Br)cc2)CC1 | 0.3 | -3.0 | 9 | 4.9% | 6 | 12
COc1ccc(C(=O)N/N=C(\C)c2ccc3c(c2)C2C=CCC2C(c2ccccc2)N3)cc1 (configuration not stated) | -0.1 | -1.5 | 9 | -1.2% | -10 | 8
CCN(CC)S(=O)(=O)c1cc(NS(=O)(=O)c2cccc(C(=O)O)c2)ccc1C | 0.3 | 2.8 | -2 | 2.0% | 9 | -4
Cc1ccc(Oc2cnc3ccccc3n2)cc1 | 0.3 | -3.0 | -3 | 2.4% | 16 | -8
CCC(C)NCCOCCOc1ccc(C)cc1OC (configuration not stated) | -0.5 | -1.4 | -1 | 0.9% | 1 | 9
O=C1Nc2ccccc2/C1=C/c1ccc([N+](=O)[O-])cc1 | -0.1 | 11 | -10 | 1.9% | 2 | 27
CN(C)c1ccc(CSc2ccccc2)cc1 | 1.0 | -7.3 | -3 | -0.1% | ? | 7
COc1ccc2nc(SCC(=O)NCCc3ccccc3)[nH]c2c1 | -0.1 | -0.3 | -4 | -0.6% | 1 | 7
Cc1ccc(C(=O)NNC(=O)CCOc2cccc(C)c2)cc1 | 6.2 | 0.0 | -21 | 1.5% | 0 | 15
Cn1c(=O)c(C(=O)NC2CCCCCCC2)c(O)c2ccccc21 | 0.9 | -1.2 | 7 | 8.2%[38.3 µM] | 2 | 12
COCCOC(=O)c1[nH]c2c(c1C)C(=O)CC(c1ccccc1)C2 (configuration not stated) | 0.4 | 3.3 | -6 | 16% | -1 | 13
CN1CCN(C2CN(Cc3cn(Cc4ccccc4F)nn3)S(=O)(=O)C2)CC1 (configuration not stated) | 0.7 | -3.8 | -6 | 1.1% | -4 | 6
CCOC(=O)C1CCCN(C(=O)CSc2nc(C)cc(C)n2)C1 (configuration not stated) | -0.5 | -2.8 | -6 | 0.9% | 9 | -1
Cc1ccc2occ(CC(=O)N(Cc3ccccc3Cl)C3CCS(=O)(=O)C3)c2c1 (configuration not stated) | -0.4 | nt | nt | 0.3% | nt | -24
CCOC(=O)c1c(C)[nH]c(C)c1S(=O)(=O)NCC(=O)Nc1ccc(CC)cc1 | -1.1 | nt | nt | 0.7% | nt | -16
CCOC(=O)C1NC(=O)CC1c1ccccc1 (configuration not stated) | -0.2 | -3.5 | 4 | 1.0% | -10 | -10
Cc1noc(C)c1NC(=O)Nc1ccc2c(c1)C(=O)N([C@H](C)CO)C[C@H](C)[C@@H](CN(C)C(=O)Nc1ccc3c(c1)OCO3)O2 | -0.3 | -0.4 | -1 | -0.3% | 3 | 2
Cc1ccc(NC(=O)c2cnn(-c3ccc(C)c(C)c3)c2C2CCN(C(=O)OC(C)(C)C)CC2)c(C)c1 | -0.5 | nt | nt | 5.0% | nt | -12

Entries of single compounds, looked up by structure.
Entry for `Cc1ccc(Oc2cnc3ccccc3n2)cc1` : TRPML1 ag = 0.3; D2 ag = -3.0; D2 PAM = -3; PINK1 expr mod = 2.4%; Six1-Eya2 blk = 16; TRPML1 blocker = -8
Entry for `COCCOC(=O)c1[nH]c2c(c1C)C(=O)CC(c1ccccc1)C2` (configuration not stated) : TRPML1 ag = 0.4; D2 ag = 3.3; D2 PAM = -6; PINK1 expr mod = 16%; Six1-Eya2 blk = -1; TRPML1 blocker = 13

Next part.
SMILES | TRPML1 ag | D2 ag | D2 PAM | PINK1 expr mod | Six1-Eya2 blk | TRPML1 blocker
CCOC(=O)c1c(C)nc2ccc(Cl)cc2c1-c1ccccc1 | 1.6 | 0.2 | -1 | ? | 9 | 4
NC(=O)C1CCN(C(=O)c2cc3c(s2)CCCC3)CC1 | 0.2 | -3.2 | -65 | 0.6% | 3 | 3
Cc1ccc(-c2csc(NCCn3c(-c4ccncc4)nc4cc(C(F)(F)F)ccc43)n2)cc1 | -0.4 | -3.6 | -14 | 10% | -8 | 10
CCCc1cc(C(=O)N2CCCC(Nc3ccc(C)c(C)c3)C2)n(C)n1 (configuration not stated) | -0.4 | -4.4 | -5 | 0.9% | -9 | 17
COc1cccc(C2Nc3ccccc3C(=O)N2Cc2ccccc2)c1 (configuration not stated) | 1.2 | 2.0 | 1 | 0.3% | 6 | 31
Cc1ccc([N+](=O)[O-])cc1NC(=O)CN1CCCCC1 | 2.1 | -2.7 | -42 | -0.4% | -2 | 8
COc1cccc(C(O)c2nc(-c3ccc(N(C)C)cc3)cs2)c1 (configuration not stated) | 1.0 | 0.6 | -5 | 7.7% | -22 | 23
Cc1c(OCC(F)(F)F)ccnc1CS(=O)c1nc2ccccc2[nH]1 (configuration not stated) | 0.6 | -6.8 | -8 | -0.1% | 0 | 8
Cc1cc(C)cc(N(C(=O)c2csnn2)C(C(=O)NC2CCCCC2)c2cccnc2)c1 (configuration not stated) | 0.9 | -0.7 | 8 | -0.2% | 6 | -1
COc1ccccc1-c1ccc(SCc2ccccc2)nn1 | 1.0 | 3.6 | 5 | ? | 16 | -10
COCc1nnc(NC(=O)c2ccc(Cl)cc2[N+](=O)[O-])s1 | -0.1 | 0.2 | -9 | -2.3% | 5 | 4
O=C(Nc1ccccc1C(F)(F)F)C1CC(=O)N(c2ccccc2F)C1 (configuration not stated) | -0.3 | -1.1 | 8 | 1.1%[38.3 µM] | -1 | 9
O=C(COC(=O)c1ccc(Cl)nc1)NC1CCCCCC1 | 2.0 | -0.4 | -1 | -0.7% | 2 | 21
Cn1c2ccccc2c2nnc(SCC(=O)Nc3cccc(O)c3)nc21 | nt | -3.4 | -10 | 1.7% | -2 | nt
CCCC(C)c1nnc(NC(=O)CN2C(=O)c3ccccc3C2=O)s1 (configuration not stated) | 2.4 | -3.5 | -4 | 1.5% | 9 | 3

Part of the list above, with tabs.
compound	TRPML1 ag	D2 ag	D2 PAM	PINK1 expr mod	Six1-Eya2 blk	TRPML1 blocker
CCC(C)NCCOCCOc1ccc(C)cc1OC (configuration not stated)	-0.5	-1.4	-1	0.9%	1	9
O=C1Nc2ccccc2/C1=C/c1ccc([N+](=O)[O-])cc1	-0.1	11	-10	1.9%	2	27
CN(C)c1ccc(CSc2ccccc2)cc1	1.0	-7.3	-3	-0.1%	?	7
COc1ccc2nc(SCC(=O)NCCc3ccccc3)[nH]c2c1	-0.1	-0.3	-4	-0.6%	1	7
Cc1ccc(C(=O)NNC(=O)CCOc2cccc(C)c2)cc1	6.2	0.0	-21	1.5%	0	15
Cn1c(=O)c(C(=O)NC2CCCCCCC2)c(O)c2ccccc21	0.9	-1.2	7	8.2%[38.3 µM]	2	12

Continuation:
SMILES | TRPML1 ag | D2 ag | D2 PAM | PINK1 expr mod | Six1-Eya2 blk | TRPML1 blocker
CN1CCN(c2nc(Nc3ccc(O)cc3)nc3ccccc23)CC1 | 0.4 | 0.3 | -9 | 0.7% | -17 | 15
O=C(O)c1cccc(-c2ccc(/C=N/Nc3nn[nH]n3)o2)c1 | 3.1 | 9.3 | -4 | 0.2% | ? | -14
CCOC(=O)COc1ccc2c(c1)c(C(=O)OCC)c(C)n2CC | 0.9 | 1.0 | -8 | -2.3% | 6 | -10
CCCCSc1nnc(-c2ccc(NC(C)=O)cc2)n1C | 0.3 | 0.0 | -4 | 1.3% | -7 | -9
O=C(Nc1cccnc1)c1cc(Br)c(Br)s1 | 0.0 | 0.8 | 0 | -0.3% | 8 | -5
c1ccc2c(c1)c1c(c3ccccc32)CN2CCCC2C1 (configuration not stated) | 0.9 | 0.4 | -19 | -5.8% | -15 | -12
CN(C(=O)COc1cccc(C#N)c1)C1CCS(=O)(=O)C1 (configuration not stated) | 0.2 | -4.2 | -4 | -0.6% | 11 | -1
COc1cccc(C(=O)NCc2ccc3[nH]c(C)cc3c2)c1 | -0.1 | -3.4 | -1 | 0.4% | -3 | 0
Cc1ccc(C2=NOC(C)(c3sc(-c4ccc(Cl)cc4)nc3C)C2)cc1 (configuration not stated) | 3.6 | -3.5 | -9 | -0.8% | 3 | 11
CSCCC(NC(=O)c1ccccc1Cl)C(=O)N1CCN(c2ccccn2)CC1 (configuration not stated) | -0.5 | 1.3 | -24 | 1.8% | -10 | 13
CN1C[C@@H]2[C@@H]3C(=O)N(Cc4ccccc4)C(=O)[C@@H]3[C@](Cc3ccccc3)(C1=O)N2C(=O)c1ccc(Cl)c(Cl)c1 | 2.8 | 0.8 | 0 | 1.1% | -9 | -4
Cc1nc2ccccc2c2c1C(=O)N(c1cccc(C(=O)O)c1)C2=O | 0.0 | 7.5 | 3 | -0.6% | 0 | -13
CN(C)CCN(C)C1CN(Cc2ccc(F)cc2)S(=O)(=O)C1 (configuration not stated) | -0.5 | -2.6 | -5 | 0.9% | -2 | -5
COc1ccc(NC(=O)c2cc(Cl)ccc2NC(=O)c2ccco2)c(OC)c1 | 3.3 | -5.4 | -19 | 1.4% | 9 | 2
CCN(CC)S(=O)(=O)c1ccc(N=Cc2c(C)c(C#N)c(=O)n(C)c2O)cc1 | 0.8 | 0.5 | -7 | 2.4% | 0 | 14
COc1ccc2ccccc2c1/C=N/NC(=S)NCCN1CCOCC1 | -0.3 | -3.2 | -29 | -1.1% | -25 | -3
CSc1cc(C)n(-c2ccccc2C)c(=S)c1C(C)=O | -0.4 | -2.3 | 0 | 0.7% | 0 | 22
